High-throughput results as filed in PubChem.
RanGTP-Impb inh = disruptors of Ran-importin-beta complex formation – biochemical, FRET, CFP-Ran, YFP-importin-beta, homogeneous, primary screen. inhibition, % (concentration not given with the values). hit rate 1.1% among 300,000. cell-free CFP-Ran/YFP-importin-beta FRET ratio;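 active means most replicates above 15%; inconclusive means exactly half above 15%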;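 further: 0% = DMSO wells and 100% = Ran loaded with GDP instead of GTP; wells of about 40 µL received 100 nL stock; the first replicate is given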
T cruzi repl = blocks replication of Trypanosoma cruzi | T. cruzi beta-gal in NIH3T3, luminescence, 90 h | inhibition, % (concentration not given with the values) | hit rate 1.4% among 300,000 | AID 1885;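 active means mean inhibition across valid replicates above about 55%, limit read from the data; inconclusive means mean below that limit but half or more replicates reach it; inactive means mean below it, under half of replicates reach it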;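 further: signal also drops with host cell toxicity which is not excluded here; 0% = plate median of DMSO wells and 100% = zero luminescence signal; higher percent means less beta-gal luminescence so fewer parasites; stock transfer was 50 nL into about 50 µL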
LANA-H2B inh = blocks KSHV LANA binding to histone H2A/H2B | cell-free LANA-H2A/H2B peptide, fluorescence polarization | inhibition, % (no concentration beside the values) | AID 2629 | hit rate 0.6% among 320,000; in the data active means inhibition mostly above about 10%, no sharp cut-off; inactive means mostly below about 6.7%;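 further: stock transfer was 7.5 nL into about 10 µL; 0% = median of vehicle wells and 100% = median of positive control wells; one replicate is shown; the record names a cut of 25% in any replicate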
Beta cell apopt = blocks beta cell apoptosis; INS-1E cytokine-induced death, ATP luminescence, 48 h; percent of positive-control rescue, neutral wells zero; protection from apoptosis, % (test concentration not listed); hit rate 0.8% among 300,000;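 active means all replicates at 75% or more, or half of them and the mean; inconclusive means half reach 75% but not the mean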;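 further: 0% = cytokine-treated negative control wells and 100% = positive control rescue; higher means more ATP so stronger rescue from cytokine killing; wells of about 40 µL received 100 nL stock; the first replicate is given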
Calb FLC = C. albicans growth modulation with fluconazole; C. albicans CaCi-2 (fluconazole-resistant clinical isolate) + fluconazole, Alamar Blue growth, 48 h; growth inhibition, % (test concentration not listed); hit rate 0.57% among 300,000; AID 1979;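 active means most replicates above 75%; inconclusive means exactly half above 75%; inactive means most below 75%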;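 further: all wells also contain fluconazole at 8 µg/ml as a sub-toxic cotreatment; 0% = median of DMSO wells and 100% = median of geldanamycin control wells; wells of about 8 µL received 7.5 nL stock; the first replicate is given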
UCH37 inh = blocks the human deubiquitinase UCH37; Q9Y5K5; purified proteasome/UCH37, Ub-AMC cleavage fluorescence; inhibition, % (no concentration beside the values); hit rate 0.33% among 330,000;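 active means mean of two replicates above 20%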;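 further: 0% = compound-free wells with enzyme and 100% = wells lacking proteasome; stock transfer was 100 nL into about 20 µL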
Target sequence (Q9Y5K5 whole entry, looked up): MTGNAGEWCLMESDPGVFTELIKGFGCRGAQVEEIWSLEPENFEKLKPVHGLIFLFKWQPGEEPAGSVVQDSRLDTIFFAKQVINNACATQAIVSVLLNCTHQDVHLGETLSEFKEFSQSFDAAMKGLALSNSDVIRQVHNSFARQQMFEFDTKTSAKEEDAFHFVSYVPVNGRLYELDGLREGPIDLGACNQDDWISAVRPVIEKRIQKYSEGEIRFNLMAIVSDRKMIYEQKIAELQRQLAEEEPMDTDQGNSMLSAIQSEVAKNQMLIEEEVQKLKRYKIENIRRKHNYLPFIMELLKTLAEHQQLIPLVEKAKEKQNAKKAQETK
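Signal – fluorescence, ex 355 nm, em 460 nm · System – Proteasome-bound UCH37 · Input – 0.15 nM proteasome as dispensed · Timing – 30 min preincubation with enzyme, 25 min cleavage at room temperature · Read-out basis – percent inhibition of cleavage signal versus uninhibited and no-proteasome wells · Medium – Tris-HCl pH 7.4 with ATP-MgCl2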
Bfl-1 A1 inh = inhibitors of the anti-apoptotic protein A1, read as caspase activation; hit rate 0.066% among 330,000; AID 2462; MEF A1-2A-BIM cells, Caspase-Glo 3/7 luminescence, 3 h; percent of clofoctol response, vehicle zero; caspase activation, % (no concentration beside the values);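 active means over half of replicate activation scores above 10%, or exactly half above 10 with the replicate mean above 10; inconclusive means replicate mean below 10 yet half the replicates above 10; inactive means over half of replicates below 10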;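 further: wells of about 30 µL received 50 nL stock; many hits fall short of the cut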
B2AR ag = activates human beta-2 adrenergic receptor causing internalization. P07550. Am2.2-beta2AR cells, FAP receptor internalization, flow cytometry; reference of the scale not given here. response, % (concentration not given with the values). hit rate 0.43% among 340,000;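 active means response above a set limit, near 3 SD of response in nonfluorescent compounds, cut at about 42% in these data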;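 further: stock transfer was 100 nL into about 11 µL; a reference agonist was the positive control; negative values mostly stem from fluorescent compounds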
Target sequence (P07550 whole entry, looked up): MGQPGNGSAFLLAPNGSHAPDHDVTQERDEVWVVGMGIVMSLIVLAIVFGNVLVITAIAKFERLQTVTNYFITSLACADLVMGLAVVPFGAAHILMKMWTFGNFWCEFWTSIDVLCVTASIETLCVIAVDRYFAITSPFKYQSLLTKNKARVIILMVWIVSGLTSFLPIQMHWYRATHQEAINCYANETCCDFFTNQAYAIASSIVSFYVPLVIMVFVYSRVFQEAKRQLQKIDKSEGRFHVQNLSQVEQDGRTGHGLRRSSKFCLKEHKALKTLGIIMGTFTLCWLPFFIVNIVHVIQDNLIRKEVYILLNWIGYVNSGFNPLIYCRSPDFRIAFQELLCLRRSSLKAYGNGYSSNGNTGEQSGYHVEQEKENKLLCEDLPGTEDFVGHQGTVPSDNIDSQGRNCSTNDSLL
Active calls of the source: *; ? = inconclusive; . = no result given.

SMILES	RanGTP-Impb inh	T cruzi repl	LANA-H2B inh	Beta cell apopt	Calb FLC	UCH37 inh	Bfl-1 A1 inh	B2AR ag
Cc1cc(C)nc(N2CCCC(C(=O)NC(C)CCc3ccco3)C2)n1 (stereo unspecified)	0.1	19	2.6	1	-8	-11	0.6	-4
CCOC(CCNC(=O)c1cn(CCOC)c(=O)c2c1c1ccccc1n2C)OCC	-1.4	2	2.1	0	2	-113	0.8	-14
N#C/C(=C/c1cccc([N+](=O)[O-])c1)c1nnc2n1CCCCC2	1.4	0	-3.9	.	3	3.8	0.3	4
Cc1cc(NC(=O)CSc2nnc(C3COc4ccccc4O3)n2C)no1 (stereo unspecified)	-0.9	-4	1.9	-10	17	-0.3	0.0	-6
Cc1ccc(N(C(=O)Cn2nnc(-c3ccccc3)n2)C(C(=O)NC2CCCCC2)c2ccccn2)cc1C (stereo unspecified)	6.1	8	4.7	.	-22	1.4	0.3	-4
NS(=O)(=O)c1ccc(Nc2nc(-c3ccc4ccccc4c3)cs2)cc1	-3.7	17	-8.0	1	-10	1.1	1.0	9
NC(=O)c1cc[n+](CC(=O)NC(=O)Nc2ccccc2)cc1	.	.	0.2	3	.	2.4	-0.3	1
Cc1ccc2nc(/C(C#N)=C/c3ccc(-c4cccc([N+](=O)[O-])c4)o3)[nH]c2c1	.	.	1.1	-6	.	10	-0.4	-28
Cc1cccc(NC(=S)NCC(C)CSc2ccc(Cl)cc2)c1 (stereo unspecified)	4.3	17	17	14	19	.	0.6	-8
CC(=O)Nc1nnc(SCC(=O)NC2CCCC2)s1	0.6	12	-2.5	.	-1	2.7	-0.1	7
COC(=O)c1sc(SC)nc1N	5.9	0	-4.8	-6	-2	5.6	-2.5	.
O=C(Nc1ccccc1)C1CC(O)CN1S(=O)(=O)c1ccc([N+](=O)[O-])cc1 (stereo unspecified)	-2.6	-8	1.6	-1	-13	2.4	0.3	-7
CC(C)CC(C(=O)O)N1C(=O)[C@@H]2[C@H](C1=O)[C@@H]1C[C@H]2C(Br)C1Br (stereo partly specified)	1.5	-12	-0.4	-4	5	1.9	0.0	3
CC(C)C(=O)c1cn(CC(=O)NCC2CCCO2)c2ccccc12 (stereo unspecified)	4.8	-5	5.3	-3	3	0.6	0.1	20
Cc1c(C(=O)N/N=C/c2cccnc2)nnn1-c1nonc1N	3.2	-10	11	-4	24	.	0.5	-6
O=C(NC1CCCCC1)C(c1ccc(F)cc1)N(C(=O)Cc1ccsc1)c1ccc(F)cc1 (stereo unspecified)	0.3	74*	1.1	-5	11	0.5	0.8	-2
O=S(=O)(c1ccc2nnn(O)c2c1)N1CCCCC1	1.1	-6	-11	3	-5	6.5	-0.9	8
CC(C)(C)CC(=O)N[C@@H](Cc1ccccc1)c1nc2ccccc2[nH]1	0.0	-8	-0.7	-1	21	3.9	1.5	-7
C/C(=N\Nc1cc(N2CCOCC2)ncn1)c1ccccc1	5.8	51	3.2	-4	7	.	-2.4	-8
COc1ccc(C(=O)N[C@H]2COC(C)(C)O[C@H]2c2ccccc2)cc1	1.3	-1	-1.4	-4	-4	-0.8	0.8	6
c1cc(CSc2nnc(-c3ccc4c(c3)OCO4)o2)ccn1	-2.8	9	-2.6	-7	11	1.2	-1.2	4
C=CCOc1nc(-c2ccccc2Cl)nc2ccccc12	0.6	-1	0.7	.	-1	4.2	-0.3	-9
Cc1cccc(N2C(=S)N=C(Nc3c(C)cccc3C)C23CCOC(C)(C)C3)c1 (stereo unspecified)	2.2	7	-3.5	82*	1	5.8	0.5	2
Cc1cc(NC(=O)CSCC(=O)N2CCN(c3cccc(C)c3C)CC2)no1	.	.	-4.7	3	.	-1.6	0.0	9
Cc1ccc(Cn2c(=O)n(-c3ccccc3)c(=O)c3ccc(C(=O)NCc4ccco4)cc32)cc1	-4.5	-15	1.9	4	-7	3.0	-0.4	13
Cc1ccc(CN(C#N)c2nc(C)cc(C)n2)cc1	-1.1	12	-2.1	.	15	0.4	0.6	-4
Cc1cc(/C=N/Nc2nc(N3CCOCC3)nc(N3CCOCC3)n2)c(C)n1-c1ccccc1	2.3	45	-2.6	10	14	.	-0.1	-73
COc1ccc(OC)c(NC(=S)NCc2ccco2)c1	3.1	-3	-1.0	-4	5	-2.2	0.8	-2
Cc1ccccc1Nc1c(-c2ccccn2)nc2c(C)cccn12	3.0	42	-5.5	96*	3	4.4	-0.3	1
O=C(CSc1nc(Nc2ccccc2)nc(N2CCOCC2)n1)N1CCCC1	1.7	49	-7.5	-2	11	3.8	0.2	3
Clc1cccc(CSc2nc3ccncc3[nH]2)c1	5.9	22	-0.6	0	-6	3.0	.	-6
COc1ccccc1NC(=O)CN1C(=O)CC(C)S(=O)(=O)c2ccccc21 (stereo unspecified)	-2.3	-3	3.8	-2	7	3.8	0.1	0
Cc1ccccc1OCC(O)CN1CCN(c2ccccn2)CC1 (stereo unspecified)	3.3	1	-1.0	-3	-3	-1.0	-1.1	2
C#CC[N+](C)(C)C(C#Cc1ccccc1)CC=C (stereo unspecified)	-1.2	-6	-4.7	.	6	-0.6	0.7	1
COc1ccc(C(O)(C(C)C)C(CN2CCOCC2)c2ccc(Cl)cc2)cc1 (stereo unspecified)	9.2	6	-0.3	0	13	-0.2	-0.5	1
O=C(Nc1ccc(F)cc1F)c1cc2ccccc2oc1=O	-2.7	-2	3.6	-1	-6	1.9	-6.4	7
Cc1ccc(/C=C2\SC(N3CCCCC3)=NC2=O)cc1	0.5	10	1.2	4	1	11	1.2	11
O=C(Nc1ccc2oc(-c3ccncc3)nc2c1)c1ccc(Br)o1	4.3	-2	-3.6	11	12	-50	0.0	-21
C=CCC(CC=C)(NC(=O)c1cccc(C)c1)c1ccccc1	-0.4	1	-2.8	0	-7	1.3	0.2	-4
CN(Cc1ccccc1)C(=O)c1cccc(NC(=O)C2CCCN(C(=O)OC(C)(C)C)C2)c1 (stereo unspecified)	.	.	1.7	-6	.	-1.1	1.3	-11
O=C(Nc1ccccc1N1CCCC1)c1ccc(Br)o1	-8.5	-23	-1.6	-4	0	1.4	-0.5	-13
CSc1nc(N)nc2c1ncn2CC(=O)N1CCN(Cc2c(C)cc(C)cc2C)CC1	.	.	-3.7	100*	.	-4.0	0.0	-7
Cc1ccc(/C=N/NC(=O)C(O)c2ccccc2)o1 (stereo unspecified)	-1.6	-12	1.1	-7	-6	.	0.6	13
Cc1ccc(C23CC4CC(CC(C(=O)N5CCOCC5)(C4)C2)C3)cc1	5.6	17	-5.5	2	-15	0.2	-0.1	0
C/C(CC(=O)Nc1ccc2c(c1)OCCO2)=N\NC(=O)c1cccc(O)c1	?	0	5.2	1	1	.	0.9	-8
CCN(C(=O)COC(=O)c1ccc2c(=O)n3c(nc2c1)CCC3)C1CCS(=O)(=O)C1 (stereo unspecified)	0.1	-7	-1.7	-4	-11	-11	1.7	0
CCCCN(C(=O)Cc1ccc2c(c1)OCCO2)c1c(N)n(CCC)c(=O)[nH]c1=O	.	.	-14	4	.	0.9	-2.0	1
CCc1nc2oc3cc(OC)ccc3c(=O)c2c(=O)n1Cc1ccccc1	-1.2	4	-0.4	5	-6	2.5	-0.1	-9
CN(c1ccccc1)c1nc(N)c([N+](=O)[O-])c(N2CCCCCC2)n1	1.1	20	3.4	-4	16	1.0	-0.3	-1
Cc1ccc(CNC(=O)CCS(=O)(=O)c2ccc3c(c2)NC(=O)C(C)S3)cc1 (stereo unspecified)	-3.4	2	2.7	0	-1	4.9	0.2	14
O=C(NCc1nc2ccccc2[nH]1)c1cccc(S(=O)(=O)N2CCCCC2)c1	-0.5	19	1.6	-1	-9	3.5	-0.4	-9
O=C(NCC(c1ccc(F)cc1)N1CCOCC1)c1ccc(OCc2ccccc2)cc1 (stereo unspecified)	.	.	0.9	4	.	3.5	-0.5	5
CC(=O)c1cn(CC(=O)Nc2ccc(C)cc2)c2ccccc12	5.7	-5	-1.3	7	-2	20*	-0.3	-5
CCN1C(=O)Cc2cc(S(=O)(=O)NCCc3ccccc3)ccc21	3.5	7	11	1	1	0.2	-0.1	-6
Cc1cccc(NC(=O)N2CCCC2C(=O)Nc2ccccc2)c1 (stereo unspecified)	1.7	-2	2.4	-4	2	4.5	0.6	-10
O=S(=O)(c1ccccc1C(F)(F)F)N1CCN(S(=O)(=O)c2ccccc2C(F)(F)F)CC1	7.6	.	0.0	-6	-5	1.5	0.4	1
C=CCc1cccc(C=Nc2c[nH]c(=O)[nH]c2=O)c1O	5.7	-20	3.3	.	0	.	0.6	-3
Cc1ccc(C(=O)CN2CCN(c3ccccn3)CC2)c(C)c1	2.8	-4	.	.	-4	1.1	.	18
CC(C)(C)c1csc(NC(=O)c2cccnc2)n1	36*	-2	-3.0	2	-23	4.1	0.1	-3
CC(=O)Nc1ccc(S(=O)(=O)N2CCN(Cc3ccncc3)CC2)cc1	-0.1	-4	5.6	-5	-10	0.8	0.8	2

Part of the list above, in markdown.
| compound | RanGTP-Impb inh | T cruzi repl | LANA-H2B inh | Beta cell apopt | Calb FLC | UCH37 inh | Bfl-1 A1 inh | B2AR ag |
| --- | --- | --- | --- | --- | --- | --- | --- | --- |
| C=CCc1cccc(C=Nc2c[nH]c(=O)[nH]c2=O)c1O | 5.7 | -20 | 3.3 | . | 0 | . | 0.6 | -3 |
| Cc1ccc(C(=O)CN2CCN(c3ccccn3)CC2)c(C)c1 | 2.8 | -4 | . | . | -4 | 1.1 | . | 18 |

Carrying on:
SMILES	RanGTP-Impb inh	T cruzi repl	LANA-H2B inh	Beta cell apopt	Calb FLC	UCH37 inh	Bfl-1 A1 inh	B2AR ag
O=C1CC(C(=O)Nc2ccc(C(=O)N3CCOCC3)cc2)C2(CCCCC2)O1 (stereo unspecified)	.	.	-1.0	3	.	5.7	-0.4	52*
Cc1ccc(-n2nnnc2-c2cnc(N3CCCC3)nc2C(F)(F)F)cc1	1.1	12	0.0	-5	4	3.1	-1.5	-11
COc1ccc(C/C(N)=N/OC(C)=O)cc1OC	-1.1	-7	-2.6	-12	8	0.5	0.1	-3
CC1(C)CC(=O)C2=C(C1)N(c1ccc(F)cc1)C(=O)NC2(C(F)(F)F)C(F)(F)F	0.5	-2	-0.6	-6	-2	-1.4	0.2	8
Cc1nc2nc[nH]n2c(=O)c1NC(=O)CCc1ccccc1	-6.7	-1	.	-3	-20	0.2	0.5	-13
Cc1cccc(N(C(=O)c2snc(C(N)=O)c2N)C(C(=O)NCC2CCCO2)c2ccc3ncccc3c2)c1 (stereo unspecified)	5.4	-31	0.7	9	9	-103	0.0	-18
C=CCn1c(Cc2nc3ccccc3[nH]2)n[nH]c1=S	?	-1	4.5	-7	-8	2.5	0.2	-11
Cc1ccc(S(=O)(=O)N2CCCC(C(=O)NCc3ccccn3)C2)cc1 (stereo unspecified)	0.3	1	0.0	-1	4	-0.3	0.1	3
CCN(CC)C(=O)C1CCCN(c2ccc([N+](=O)[O-])cc2/C=N/NC(=O)c2cccc(Br)c2)C1 (stereo unspecified)	4.7	15	-3.2	19	17	.	-0.8	1
O=c1c2c3nc4ccccc4nc3n(CC3CCCO3)c2ncn1CCc1ccccc1 (stereo unspecified)	-2.7	8	2.3	7	4	-93	0.0	1

Random draw from the library; 4.3% or so of the library scored in one or more.
